High-throughput results deposited in PubChem by several laboratories.
Beta apoptosis – beta cell apoptosis inhibition; protection from apoptosis, % (concentration not given with the values); INS-1E cytokine-induced death, ATP luminescence, 48 h; percent of positive-control rescue, neutral wells zero; AID 435005; hit rate 0.8% among 300,000;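 active means all replicates at 75% or more, or half of them and the mean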;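 further: 0% = cytokine-treated negative control wells and 100% = positive control rescue; higher means more ATP so stronger rescue from cytokine killing; wells of about 40 µL received 100 nL stock; the first replicate is given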
AF4-AF9 inh – blocks AF4 peptide binding to human AF9; P42568; AlphaScreen, biotin-AF4 peptide binding to FLAG-AF9; inhibition, % at 10 µM; hit rate 0.47% among 350,000; AID 651704;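 active means every replicate reaching a set inhibition limit, whatever the replicate mean, cut at about 25% in these data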;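 further: 0% = plate neutral control median and 100% = total signal loss; the record names both 10 and 1 µM as test concentration; the first replicate is given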
Target sequence (P42568 whole entry, looked up): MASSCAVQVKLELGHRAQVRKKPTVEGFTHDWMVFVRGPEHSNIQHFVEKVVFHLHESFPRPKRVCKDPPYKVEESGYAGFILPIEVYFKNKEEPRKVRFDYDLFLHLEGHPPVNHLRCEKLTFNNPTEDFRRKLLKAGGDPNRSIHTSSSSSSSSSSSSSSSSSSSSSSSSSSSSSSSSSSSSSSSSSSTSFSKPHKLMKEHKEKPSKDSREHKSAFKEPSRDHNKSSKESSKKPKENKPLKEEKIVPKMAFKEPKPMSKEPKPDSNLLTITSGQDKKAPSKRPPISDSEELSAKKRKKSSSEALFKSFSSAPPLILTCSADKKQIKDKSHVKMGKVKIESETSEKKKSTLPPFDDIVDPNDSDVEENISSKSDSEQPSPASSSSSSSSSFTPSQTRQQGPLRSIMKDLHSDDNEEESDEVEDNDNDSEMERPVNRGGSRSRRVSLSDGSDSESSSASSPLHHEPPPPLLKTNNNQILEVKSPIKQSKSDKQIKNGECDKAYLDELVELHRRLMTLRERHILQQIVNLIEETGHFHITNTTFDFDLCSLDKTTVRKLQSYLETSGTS
FGF22 binding – shifts melting point of recombinant human FGF22; recombinant FGF22 thermal shift, SYPRO orange fluorescence; percent of sucrose octasulfate shift, DMSO zero; calls only at 9.99 µM; hit rate 1.5% among 340,000; AID 651658;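 active means melting point raised past a set limit in the mean and every replicate; three in four hits are not shown here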
T cruzi inh – blocks replication of Trypanosoma cruzi; inhibition, % (no concentration beside the values); hit rate 1.4% among 300,000; T. cruzi beta-gal in NIH3T3, luminescence, 90 h;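 active means mean inhibition across valid replicates above about 55%, limit read from the data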;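 further: signal also drops with host cell toxicity which is not excluded here; 0% = plate median of DMSO wells and 100% = zero luminescence signal; higher percent means less beta-gal luminescence so fewer parasites; stock transfer was 50 nL into about 50 µL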
Ecoli growth – blocks Escherichia coli growth; OD600, 23 h; stronger effect = lower value; OD600 absorbance (concentration not given with the values); hit rate 0.21% among 330,000;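 active means OD600 absorbance below the run mean of sample wells minus 3.6 SD, in any replicate, cut at about 0.56 in these data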;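 further: stock transfer was 300 nL into about 60 µL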
UCH37 DUB inh – blocks the human deubiquitinase UCH37. inhibition, % (no concentration beside the values). Q9Y5K5. AID 588478. purified proteasome/UCH37, Ub-AMC cleavage fluorescence. hit rate 0.33% among 330,000;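 active means mean of two replicates above 20%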;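 further: 0% = compound-free wells with enzyme and 100% = wells lacking proteasome; stock transfer was 100 nL into about 20 µL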
Target sequence (Q9Y5K5 whole entry, looked up): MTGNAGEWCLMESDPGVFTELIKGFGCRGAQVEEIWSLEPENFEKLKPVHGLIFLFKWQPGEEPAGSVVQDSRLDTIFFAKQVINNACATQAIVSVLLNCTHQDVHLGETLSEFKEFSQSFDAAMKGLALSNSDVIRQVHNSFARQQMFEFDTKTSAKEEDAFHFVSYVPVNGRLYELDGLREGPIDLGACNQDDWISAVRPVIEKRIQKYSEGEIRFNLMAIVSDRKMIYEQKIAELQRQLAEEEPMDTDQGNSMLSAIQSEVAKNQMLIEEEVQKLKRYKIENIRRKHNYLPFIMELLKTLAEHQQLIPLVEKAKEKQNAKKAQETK
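System: Proteasome-associated human UCH37 deubiquitinase; Input: 0.15 nM proteasome in added enzyme buffer; Also added: Ub-AMC substrate from 1 µM stock; Incubation: 30 min compound-proteasome preincubation then 25 min substrate reaction, room temperature; Detection: fluorescence, ex 355 nm, em 460 nm; Read-out: % inhibition of Ub-AMC cleavage fluorescence; Benchmarks: no-proteasome and no-compound wells.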
rRNA inh HTS – inhibitors of bacterial rRNA selective over humanized ribosomes | GFP signal change (wild-type ribosome), % (test concentration not listed) | AID 720706 | hit rate 1.6% among 350,000 | E. coli WT GFP vs humanized-ribosome RFP mutants, fluorescence, 24 h; stronger effect = lower value; DMSO median 0, no signal -100;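 active means significant combined selectivity score with lowered wild-type GFP, culture density cut under 30%, mutant RFP and density less affected; inactive means any of these conditions unmet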; further: one replicate is shown; some compounds called inactive have numbers as strong as hits
A1 inh – inhibitors of the anti-apoptotic protein A1, read as caspase activation. MEF A1-2A-BIM cells, Caspase-Glo 3/7 luminescence, 3 h; percent of clofoctol response, vehicle zero. caspase activation, % (concentration not given with the values). hit rate 0.066% among 330,000;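 active means over half of replicate activation scores above 10%, or exactly half above 10 with the replicate mean above 10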;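 further: wells of about 30 µL received 50 nL stock; many hits fall short of the cut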
rRNA inh HTS OD600 – recorded beside rRNA inh HTS, whose call it bears; OD600 change, %; measured here: OD600 growth;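 optical density of the mix in the first replicate; 0 = DMSO median and -100 = no signal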
rRNA inh HTS RFP – second read-out of rRNA inh HTS, no call of its own (marks repeat the call); RFP signal change, %; measured here: RFP humanized mutant strains;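 first replicate; 0 = DMSO median and -100 = no signal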
* = called active by the depositor; i = inactive; nt = no result given; + = active, no number. Some of the compounds tested; count on the stated rates, not on these rows.

item | mol | AF4-AF9 inh | Ecoli growth | UCH37 DUB inh | rRNA inh HTS | T cruzi inh | FGF22 binding | rRNA inh HTS RFP | rRNA inh HTS OD600 | Beta apoptosis | A1 inh
1 | O=C(O)c1ccc(NC(=O)C2(c3ccccc3)CCCC2)cc1 | -11 | 0.67 | 6.1 | 1 | -7 | i | 4.0 | -2 | -5 | 0.4
2 | O=C(CN1CC(c2ccccc2)CC1=O)N/N=C/c1cc(Br)ccc1O (centres undefined) | 0.0 | nt | nt | -40 | 2 | i | -3.3 | -47 | 39 | -0.4
3 | CCCC[C@@H]1C=C(C(=O)O)[C@H](c2ccc(CC)cc2)N1S(=O)(=O)c1ccc(C)cc1 | -2.3 | 0.67 | 3.2 | -12 | nt | i | -0.3 | -19 | nt | nt
4 | CCC(CC)C(=O)c1c[nH]c(C(=O)NCCCn2ccnc2)c1 | nt | 0.73 | 3.4 | nt | -5 | nt | nt | nt | 0 | -0.3
5 | CCN(CC)C(=O)[C@H]1C[C@H](CC(=O)NCc2ccco2)C(=O)N2CCc3c([nH]c4cc(CCC(=O)N(C)C)ccc34)[C@]12C | -2.5 | 0.72 | 1.2 | 0 | nt | i | -1.9 | 0 | nt | nt
6 | COc1ccccc1NS(=O)(=O)c1ccc(C)c(C(=O)NCC2(N(C)C)CCCCC2)c1 | 3.3 | 0.67 | 2.3 | 9 | nt | i | -2.7 | 4 | -5 | -0.3
7 | Cc1cc(C(=O)Cn2nc(C(=O)O)c3ccccc3c2=O)c(C)n1CC(F)(F)F | 1.7 | 0.69 | 0.4 | 6 | -9 | i | 3.1 | 2 | -4 | 0.3
8 | COc1ccc(C)cc1NC(=O)NC1CCN(Cc2ccccc2)CC1 | nt | 0.69 | 4.6 | nt | 8 | nt | nt | nt | 2 | 0.6
9 | N#C/C(=C\Nc1ccccc1SC(F)(F)F)c1nc(-c2ccc(F)cc2)cs1 | -0.7 | 0.7 | 7.4 | 9 | 14 | i | -1.1 | 3 | 3 | -0.1
10 | CN1CCc2cc3c(c4c2[C@H]1[C@H](O)c1ccccc1-4)OCO3 | -3.4 | nt | -1.7 | -56 | 42 | i | -21 | -73 | 72 | 0.3
11 | COc1ccc(-c2noc(CN(C(=O)C(C)(C)C)C(C)C)n2)cc1 | nt | 0.69 | -0.5 | nt | -1 | nt | nt | nt | -8 | -0.8
12 | COc1ccc(-c2cc(C(=O)N3CCN(c4ccccc4OC)CC3)no2)cc1OC | 14 | nt | nt | -12 | 4 | i | 3.5 | -9 | -4 | -0.6
13 | CC1C(=O)C(C)C(c2ccc(Cl)cc2)NC1c1ccc(Cl)cc1 (centres undefined) | -2.6 | 0.71 | 5.4 | -10 | 51 | i | -4.3 | -8 | nt | 0.0
14 | COCC(C)n1c(C)cc(C(=O)COC(=O)c2oc3ccccc3c2C)c1C (centres undefined) | nt | 0.78 | -1.0 | nt | -8 | nt | nt | nt | -9 | 0.6
15 | CC(C)[C@H](NC(=O)CCn1nnc2ccccc2c1=O)C(=O)O | nt | 0.7 | 3.3 | nt | -5 | nt | nt | nt | 2 | -0.4
16 | CCOC(=O)Cc1sc(N)nc1C | 0.3 | 0.65 | -0.9 | -3 | -5 | i | -2.3 | -2 | nt | -0.3
17 | N#Cc1ccc(C(=O)Nc2nnc(-c3cccs3)o2)cc1 | 2.8 | 0.59 | 13 | -23 | 35 | i | 1.0 | -54 | nt | -7.6
18 | O=C(Cn1cccc1C(=O)c1ccccc1)NCc1ccc(Cl)cc1 | -0.8 | 0.7 | 4.2 | 8 | 8 | i | 2.6 | 9 | -6 | 0.3
19 | COC(=O)C1=C(C(=O)OC)[C@@H]2N(Cc3ccccc3)c3ccccc3[C@@]23C[C@@H](CO)N(C(=O)NC2CCCC2)C3=N1 | 5.5 | nt | 0.3 | -1 | 13 | i | 6.1 | -2 | -1 | 0.0
20 | c1ccc(-n2nnnc2Oc2cccc3cccnc23)cc1 | nt | 0.64 | 2.0 | nt | -22 | nt | nt | nt | nt | -0.5
21 | Cc1ccc(Cl)cc1NC(=O)C[n+]1ccc(Cc2ccc([N+](=O)[O-])cc2)cc1 | 16 | 0.66 | 7.7 | -51 | -10 | i | -18 | -76 | 24 | -0.7
22 | COc1ccccc1CNC(=O)c1ccc(NS(=O)(=O)c2cccs2)cc1 | -1.3 | 0.65 | 4.8 | 7 | -2 | i | -4.7 | -31 | -2 | -0.7
23 | O=C(Nc1nnc(-c2ccco2)o1)c1cccc2ccccc12 | -9.0 | 0.66 | 4.2 | nt | -12 | i | nt | nt | -1 | -0.5
24 | CCOc1ccccc1C1N=C(c2ccc(OC)cc2)CC(c2ccccc2O)N1 (centres undefined) | 4.9 | 0.71 | -1.1 | -8 | -20 | i | 2.9 | -1 | 14 | -1.9
25 | COc1ccc2[nH]c3c(c2c1)CCN1C(=O)C(CC(=O)NCC24CC5CC(CC(C5)C2)C4)C[C@H](C(=O)N2CCOCC2)[C@@]31C (some centres undefined) | 11 | 0.68 | 0.9 | 1 | nt | i | 2.7 | -11 | nt | nt
26 | Cc1ccc(S(=O)(=O)c2ccc(NN)cc2)cc1 | -1.8 | 0.71 | 6.0 | -1 | nt | i | 3.4 | -10 | nt | nt
27 | COc1ccccc1NC(=O)COC(=O)c1cc(C)nc2ccccc12 | 2.6 | 0.69 | -5.5 | 9 | nt | i | 4.5 | 8 | -6 | 0.5
28 | COc1ccc(NC(=S)N2CCN(S(=O)(=O)c3ccccc3)CC2)cc1 | 2.5 | 0.69 | 4.6 | 2 | nt | i | -0.7 | 7 | -2 | 0.6
29 | O=C(CSc1nc(C(F)(F)F)cc(=O)[nH]1)N1CCCC1 | -1.7 | 0.7 | 0.9 | 3 | 0 | i | 1.7 | 19 | -6 | 1.3
30 | COCCNC(=O)CCCCCn1c(=S)[nH]c2ccccc2c1=O | nt | 0.71 | 1.8 | nt | -14 | nt | nt | nt | -1 | 0.0
31 | NC(=O)c1ccsc1NC(=O)CSc1nnc(Nc2ccccc2)s1 | 3.3 | 0.62 | 2.8 | -42 | -14 | + | -1.0 | -59 | -2 | -0.2
32 | CCOC(=O)c1nn(-c2ccccc2)c(=O)cc1SC(C)CC (centres undefined) | nt | 0.7 | 5.7 | nt | 2 | nt | nt | nt | -6 | -1.4
33 | CCc1ccc(/C=C2/SC(=S)N(CCCC(=O)Nc3ccccc3C(=O)O)C2=O)cc1 | -0.1 | 0.71 | 11 | -40 | -11 | i | -8.7 | -42 | -2 | 0.9
34 | Cc1ccc(-n2nnnc2SCCNS(=O)(=O)c2ccccc2)cc1C | nt | 0.66 | 2.0 | nt | 11 | nt | nt | nt | 0 | 1.3
35 | COc1ccc(CC(=O)OCc2cc3cccc(C)c3[nH]c2=O)cc1 | 6.4 | 0.74 | 0.1 | 13 | 2 | i | -7.5 | 5 | 1 | -0.6
36 | CCN(Cc1ccccc1)S(=O)(=O)c1cc(C(=O)c2c(N)n(C)c(=O)n(C)c2=O)ccc1OC | 2.0 | 0.66 | 7.4 | -37* | 12 | i | -5.0* | -29* | -1 | 0.1
37 | Cc1oc(C)c(C(=O)NCCCC(=O)O)c1C(=O)NCCCC(=O)O | nt | 0.74 | 3.0 | nt | -21 | nt | nt | nt | 7 | -0.7
38 | CC1Cc2ccccc2N1C(=O)COC(=O)C1=COCCO1 (centres undefined) | nt | 0.67 | 2.0 | nt | -4 | nt | nt | nt | 5 | 0.8
39 | CC(C)(C)n1nc2c(c1NC(=O)COc1ccc3ccccc3c1)CS(=O)C2 (centres undefined) | 0.8 | 0.72 | 7.4 | -14 | 5 | i | 15 | -35 | -3 | 0.2
40 | CNC(=S)N1C2CCCC1CC(NC(=O)c1ccc(C)cc1)C2 (centres undefined) | 0.8 | 0.62 | 0.3 | 13 | nt | i | 1.6 | 8 | nt | nt
41 | NC(N)=NC(N)=Nc1cccc2ccccc12 | 2.2 | 0.67 | 3.5 | 10 | -11 | nt | 6.8 | 4 | 5 | 1.9
42 | Cc1cccc(C)c1OCC(=O)NC1CC1 | 1.1 | 0.7 | 0.5 | 5 | -14 | i | -1.1 | 10 | -9 | 1.3
43 | Cc1ccc2sc(NNC(=O)c3cc(=O)c4ccccc4o3)nc2c1C | -0.5 | nt | nt | -42 | -14 | i | -10 | -46 | nt | -5.2
44 | O=C(N/N=C/c1cccc(O)c1)c1cc2c(ccc3ccccc32)o1 | -13 | nt | nt | -17 | nt | i | 6.3 | -25 | 0 | -0.1
45 | CCC(=O)N(CCC(c1ccccc1)c1ccco1)Cc1cccs1 (centres undefined) | nt | 0.68 | 0.7 | nt | 4 | nt | nt | nt | -4 | 0.1
46 | O=c1[nH]c(=O)c2nc(-c3ccc(Cl)cc3)cnc2[nH]1 | -1.0 | 0.66 | -343 | 14 | -32 | i | 0.0 | 6 | 4 | 0.3
47 | O=C(N=Nc1c(O)[nH]c2ccccc12)c1cc(-c2cccs2)[nH]n1 | 1.2 | nt | nt | 15 | -12 | i | -4.0 | 14 | 2 | -4.6
48 | Cc1cc(C2C(=O)NC(=O)C2=O)c(C)cc1Br (centres undefined) | -4.3 | 0.68 | 3.3 | -9 | nt | i | -3.3 | -3 | nt | nt
49 | COc1ccc(CNC(=O)COC(=O)CN2C(=O)NC3(CCCC3)C2=O)cc1 | 1.4 | 0.7 | 2.4 | nt | nt | i | nt | nt | -4 | 0.0

A draw from above in order of count of non-hydrogen atoms, rising.
item | mol | AF4-AF9 inh | Ecoli growth | UCH37 DUB inh | rRNA inh HTS | T cruzi inh | FGF22 binding | rRNA inh HTS RFP | rRNA inh HTS OD600 | Beta apoptosis | A1 inh
40 | CNC(=S)N1C2CCCC1CC(NC(=O)c1ccc(C)cc1)C2 (centres undefined) | 0.8 | 0.62 | 0.3 | 13 | nt | i | 1.6 | 8 | nt | nt
47 | O=C(N=Nc1c(O)[nH]c2ccccc12)c1cc(-c2cccs2)[nH]n1 | 1.2 | nt | nt | 15 | -12 | i | -4.0 | 14 | 2 | -4.6
35 | COc1ccc(CC(=O)OCc2cc3cccc(C)c3[nH]c2=O)cc1 | 6.4 | 0.74 | 0.1 | 13 | 2 | i | -7.5 | 5 | 1 | -0.6
2 | O=C(CN1CC(c2ccccc2)CC1=O)N/N=C/c1cc(Br)ccc1O (centres undefined) | 0.0 | nt | nt | -40 | 2 | i | -3.3 | -47 | 39 | -0.4
9 | N#C/C(=C\Nc1ccccc1SC(F)(F)F)c1nc(-c2ccc(F)cc2)cs1 | -0.7 | 0.7 | 7.4 | 9 | 14 | i | -1.1 | 3 | 3 | -0.1
